# Screening results: PubChem, PCMD
# Biofilm kill mix: mixtures killing C. albicans biofilm; 120,000 tested, 0.02% active; C. albicans biofilm persisters + clotrimazole, fluorescence viability; primary screen in compound mixtures of four per well; inhibition, % at 7.6 µM; AID 1242;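 active = inhibition above 30.3% in the primary screen of four-compound pools, then above 30% when the compound was retested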;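 also: compounds exposed to preformed 24 h biofilms for 48 h; the number belongs to the whole pool; some results filed as inactive read as strong as hits; inactives centre near 12; 0% = biofilm with clotrimazole alone and 100% = kill control; retested singly at about 60 µM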
#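 Test system: C. albicans CAF4-2 wild-type biofilms; buffer or medium: RPMI/MOPS medium, pH 7.0; schedule: 24 h biofilm formation, then 48 h compound exposure, 37 °C; detection: Alamar Blue fluorescence; measure: percent inhibition of biofilm viability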
# Starred values were filed as active, the others as inactive. Only part of the results is shown. The share of hits here may be higher or lower than overall.
SMILES,Biofilm kill mix
COc1ccc(N2C(=O)CC(c3ccccc3)C2=O)cc1 (stereo not given),19
CCc1ccc(N2CN(Cc3ccco3)CNC2=S)cc1,9
CC(C)(C)c1ccc(C(=O)Nc2ccc(O)c3c(=O)cc(-c4cccc(Cl)c4)oc23)cc1,7
COCCCNC(=O)c1cc(C)nn1-c1ccccc1,22
CSc1nc(Cl)cc(N2CCOCC2)n1,11
O=C1COc2ccc(C(=O)COC(=O)Cc3ccc(Cl)cc3)cc2N1,16
Cc1ccc(SCc2cc(=O)[nH]c(/N=C(\N)Nc3ccccc3Sc3ccccc3)n2)cc1,-1
Cc1ncc(CO)c(/C=N/NC(=O)c2ccc(Br)cc2)c1O,9
CCn1c(=O)c2c(n3c(=S)[nH]nc13)-c1ccccc1CC21CCCCC1,15
COCC1CCCCN1Cc1cn(-c2ccccc2)nc1-c1ccc2c(c1)OCO2 (stereo not given),-8
O=C(Cn1cnc2c(nnn2Cc2ccc(Cl)cc2)c1=O)c1ccccc1,15
CC1(C)Cc2cccc(C(=O)Nc3ccncc3)c2O1,13

# Given with tabs: entries from further up.
SMILES	Biofilm kill mix
Cc1ccc(SCc2cc(=O)[nH]c(/N=C(\N)Nc3ccccc3Sc3ccccc3)n2)cc1	-1
O=C1COc2ccc(C(=O)COC(=O)Cc3ccc(Cl)cc3)cc2N1	16

# (further entries)
SMILES,Biofilm kill mix
CCOC(=O)c1c(C)[nH]c(C)c1C(=O)CSc1nncs1,16
CCOC(=O)C1(C)NC(c2cccs2)C2C(=O)N(c3ccc(C)cc3)C(=O)C21 (stereo not given),7
O=C(Nc1cccc(-c2nc3ccccc3c(=O)o2)c1)c1ccccc1,-5
Cc1cccc(CSc2ncnc3ccccc23)c1,14
COCC(=O)OCC(=O)Nc1ccccc1-c1ccccc1,14
O=C(CSc1nnc(C2COc3ccccc3O2)o1)N1CCN(c2ccccc2)CC1 (stereo not given),6
C/C(CC1CC(C)(C)OC1=O)=N\NC(N)=S (stereo not given),24
Cc1csc(N/N=C\c2cccnc2)n1,17
COC(=O)c1ccc(NC(=O)C(=O)N2CCN(C(=S)Nc3cccc(C)c3C)CC2)cc1,20
COC(=O)c1ccc(C2NC(=O)c3c(sc(C)c3C)N2)cc1 (stereo not given),14
O=C(Cc1cccs1)NC1(C(=O)NC2CCCC2)CCCCC1,15
CCOc1cc(/C=C2\C(=O)N(CCc3ccc(OC)c(OC)c3)C(C)=C2C(=O)OC)ccc1O,13

# Taken from above.
# COC(=O)c1ccc(NC(=O)C(=O)N2CCN(C(=S)Nc3cccc(C)c3C)CC2)cc1 in Biofilm kill mix reads 20
# CCOC(=O)C1(C)NC(c2cccs2)C2C(=O)N(c3ccc(C)cc3)C(=O)C21 (stereo not given) in Biofilm kill mix reads 7
# Cc1csc(N/N=C\c2cccnc2)n1 in Biofilm kill mix reads 17
# O=C(Nc1cccc(-c2nc3ccccc3c(=O)o2)c1)c1ccccc1 in Biofilm kill mix reads -5
# O=C(Cc1cccs1)NC1(C(=O)NC2CCCC2)CCCCC1 in Biofilm kill mix reads 15

# A draw from above in order of molecular weight, rising:
SMILES,Biofilm kill mix
Cc1csc(N/N=C\c2cccnc2)n1,17
Cc1cccc(CSc2ncnc3ccccc23)c1,14
CCOC(=O)c1c(C)[nH]c(C)c1C(=O)CSc1nncs1,16
CCOC(=O)C1(C)NC(c2cccs2)C2C(=O)N(c3ccc(C)cc3)C(=O)C21 (stereo not given),7
CCOc1cc(/C=C2\C(=O)N(CCc3ccc(OC)c(OC)c3)C(C)=C2C(=O)OC)ccc1O,13

# Further structures:
SMILES,Biofilm kill mix
O=C(/C=C/c1ccco1)Nc1ccc(-c2nc3ccccc3[nH]2)cc1,-3
Cc1ccc(SCC(=O)N2CCC(C(N)=O)CC2)cc1,12
COc1ccc(OC)c(Nc2nc(-c3ccccc3O)nc3ccccc23)c1,5
C/C(=N\Nc1ccc(C(F)(F)F)cc1[N+](=O)[O-])C(C)C,-1
NS(=O)(=O)c1cccc(NC(=O)COC(=O)C2(c3cccc(F)c3)CCCC2)c1,19
NC1=NC(=O)C2(COC(c3cccnc3)OC2)S1 (stereo not given),3
COc1ccc(N2CCC(CNC(=O)Nc3ccc(C)c(C)c3)C2)cc1 (stereo not given),11
CCCCSc1nc2c(=O)[nH][nH]c(=O)c2n1Cc1ccccc1,10
O=C(c1ccc(Cl)cc1)N(Cc1ccc(Br)cc1)N1C(=O)CCC1=O,18
Cc1cc(C(=O)COc2cccnc2[N+](=O)[O-])c(C)n1-c1ccccc1,20
Cc1ccc(NC(=O)C2OCCc3ccccc32)cc1Cl (stereo not given),14
Cc1c(NC(=S)SCc2ccccc2)c(=O)n(-c2ccccc2)n1C,12
COc1cccc(CN(C)Cc2nc(C3CC3)no2)c1,16
CNC(=S)N(CCc1c(C)[nH]c2ccc(Cl)cc12)Cc1cccs1,21
CCc1ccc(/C=N\n2cnnc2)cc1,21
CN(CC(=O)NCc1ccccn1)S(=O)(=O)c1ccc(Br)cc1,9
CCn1c(SCC(=O)N2CCC(C(N)=O)(N3CCCCC3)CC2)nnc1-c1ccccc1,9
O=C(NCCc1ccccc1)C1CCC(CNc2c(N3CCCCC3)c(=O)c2=O)CC1 (stereo not given),8
COc1ccc(C(=O)C2CCCN(Cc3ccc4nonc4c3)C2)cc1F (stereo not given),22
COc1ccc(CC(=O)NCc2nnc(SCc3ccc([N+](=O)[O-])cc3)n2C)cc1,10
O=C1CC(Nc2ccc(N3CCOCC3)cc2)C(=O)N1C1CCCCC1 (stereo not given),8
Cc1sc2nc(C(C)Sc3n[nH]c(N)n3)[nH]c(=O)c2c1C (stereo not given),12
CC(C)(C)c1ccc(CCC2OCC(CN3CCOCC3)O2)cc1 (stereo not given),5
O=C1CN(C(=O)COC(=O)c2ccc[n+]([O-])c2)c2ccccc2N1,7
CCCC[N+](CC#CCO)(CC#Cc1ccccc1)CCCC,10
C/C(=N\NC(=O)CSCc1ccc([N+](=O)[O-])cc1)c1cccc(Br)c1,9
Fc1cccc(F)c1-n1c(CN2CCCC2)csc1=S,11
O=C(c1ccc2c(=O)n3c(nc2c1)CCCCC3)N1CCc2ccccc21,24
COc1ccc(OC)c(S(=O)(=O)Nc2cc(Cl)cc(Cl)c2)c1,11
Cc1ccc(CCNC(=O)c2cc(-c3ccncc3)nc3ccccc23)cc1,27
CCCN(CC(=O)Nc1ccc(Cl)cc1Cl)Cc1cc(=O)n2ccsc2n1,12
Cc1cccn2cc(-c3ccc(F)cc3)cc12,21
CC(=O)Nc1ccc(S(=O)(=O)NC(C)C(=O)NCCc2ccc(F)cc2)cc1 (stereo not given),12
O=C(CN1C(=O)NC2(CCOc3ccccc32)C1=O)Nc1ccc(F)c(F)c1F (stereo not given),-15
O=C(N/N=C/c1ccccc1)c1ccc(OCc2ccccc2)cc1,3
COc1ccc(N(C(=O)c2ccco2)S(=O)(=O)c2ccc(F)cc2)cc1,3
CN1C(=O)N(C)C2(C)CC1(C)N(C)C(=O)N2C,13
O=C(Cc1cccs1)NNC(=O)C12CC3CC(CC(C3)C1)C2,8
CC/C(=N\NC(=S)Nc1cc(C)ccc1C)c1ccc(OC(F)F)cc1,12
Cc1c(Cc2ccccc2)c(=O)oc2c(O)c(O)ccc12,8
O=C(/C=C/c1ccc(Br)cc1)c1ccc(NC2=NCCCS2)cc1,-15
O=C(Cn1nc(C(=O)O)c2ccccc2c1=O)Nc1ccc2c(c1)OCO2,16
COC(=O)C1=NN(c2ccc(OC)cc2)C2C(=O)N(c3ccccc3OC)C(=O)C12 (stereo not given),27
COC(=O)NNC(=O)C1CCC(C)CC1 (stereo not given),19
COc1cc(OC)cc(C(=O)NNC(=S)Nc2ccccc2OC)c1,10
CCOC(=O)c1c(N)c2cc([N+](=O)[O-])cnc2n1C,16
CC(C)c1ccc(NC(=O)CNS(=O)(=O)c2ccc(F)cc2)cc1,16
Cc1ccc(Cl)c(OCC(=O)Nc2sc(C)c(C)c2C#N)c1,19
COc1ccc(N(CC(=O)NN=C2CCCC2)S(=O)(=O)c2ccccc2)cc1Cl,14
COCCNC(=O)c1ccccc1NC(=O)c1cccc([N+](=O)[O-])c1C,3
CCn1c(SCC(=O)Nc2ncc(C(F)(F)F)cc2Cl)nnc1-c1cccc(C)c1,22
Cc1nn(C(C)(C)C)c(NC(=O)c2ccc(Cl)cc2Cl)c1Br,19
COC(=O)C1=C(C)N(C)C(=S)N(C)C1c1cccc(Br)c1 (stereo not given),9
COc1ccc(NC(=O)c2csc3c2CCCCC3)c(OC)c1,14
CCOc1cc(N2CCOCC2)c(OCC)cc1NC(=O)CN1CCCC(C)C1 (stereo not given),7
CN(C)S(=O)(=O)c1ccc(N2CCCC2)c(C(=O)Nc2nc3c(ccc4ccccc43)s2)c1,9
Cc1ccc(S(=O)(=O)/N=C2/NC(=O)/C(=C/c3ccccn3)S2)cc1,19
COC(=O)c1cc(=O)n(-c2c(Cl)cc(C(F)(F)F)cc2Cl)[nH]1,16
Cc1cccc2cc(C3CC(c4ccco4)=NN3C(=O)CCC(=O)O)c(Cl)nc12 (stereo not given),21
O=[N+]([O-])c1ccc(N2CCNCC2)c(S(=O)(=O)N2CCOCC2)c1,8

# Later entries
SMILES,Biofilm kill mix
COc1cc(CNn2c(C)n[nH]c2=S)cc(Br)c1OCc1ccc(F)cc1,8
CN(C)CCCNc1c2c(nc3cc(-c4cccc(F)c4)nn13)CCC2,22
CC[C@@H](C)[C@@H](C(=O)N1CCNCC1)n1cc(CCC(=O)O)nn1,14
CC(=O)Nc1ccc(NS(=O)(=O)c2c(Cl)cccc2Cl)cc1,20
COc1ccc(C(=O)NCC(=O)OCc2ccc(F)cc2Cl)cc1OC,14
O=C(NCc1ccccc1)C1=C[C@@H](c2ccc(C(F)(F)F)cc2)C[C@@H](OCc2ccc(CO)cc2)O1,17
CC(C)C(C)NC(=O)COc1ccc([N+](=O)[O-])cc1Cl (stereo not given),1
COc1ccccc1NC(=O)CSc1nnc(C2CCCCC2)n1-c1ccccc1,11
S=C(NCCc1ccccn1)NC1CCCCC1,-4
CN(c1ccccc1)S(=O)(=O)c1cccc(NC(=O)c2cncc(Br)c2)c1,12
Cc1nnc(SCC(=O)NCc2ccccc2Cl)[nH]c1=O,12
Cc1ccc(C(=O)OCC(=O)NCc2cccs2)cc1S(=O)(=O)N1CCOCC1,6
Cc1ccc(C(=O)NC(C)c2ccccc2)o1 (stereo not given),15
CCn1c(Cc2ccccc2)nnc1SCC(=O)Nc1ccc(OC)cc1,-7
CC(C)(C)OC(=O)N/N=C\c1ccc(OC(=O)c2ccco2)cc1,-5
Cc1nc(C(=O)N2CCOCC2)sc1C1(C)CC(c2ccccc2)=NO1 (stereo not given),15
COc1ccc(N2C=C3C(=O)C(C)(OC(=O)CCc4ccccc4)C(=O)C=C3C=C2c2ccc(C#N)cc2)cc1 (stereo not given),16
CCOc1c(Br)cc(CNc2ccc(N3CCN(C(C)=O)CC3)cc2)cc1OC,20
C=CCNCCCCOc1ccc(Br)cc1C,15
CCCOC(=O)CCCN1C(=O)/C(=C2\SC(=S)N(CCCC(=O)OCCC)C2=O)SC1=S,23
O=C(O)/C=C/c1cnn(-c2ccccc2)c1,8
Cc1cc(N/N=C/c2ccccc2Cl)nc(NCc2ccccc2)n1,5
O=C(C1=NN(c2ccccc2)C2C(=O)N(c3ccccc3)C(=O)C12)c1ccccc1 (stereo not given),13
Cc1nn(CC(=O)c2ccc(Br)s2)c(C)c1[N+](=O)[O-],17
O=S(=O)(Cc1noc(-c2ccccc2Cl)n1)c1ccccn1,19
COc1ccccc1/C=C(\C#N)C(=O)Nc1ccc(S(N)(=O)=O)cc1,4
COc1ccc(/C=C\c2nc(=O)c3ccccc3o2)cc1,17
Cc1ccc(CN2CCN(/N=C/c3ccccc3)CC2)cc1,26
CCCCC(=O)Nc1cc(OC)c(NC(=S)NC)cc1OC,11
COc1ccc(CC(=O)NC(CC(=O)O)c2cccc([N+](=O)[O-])c2)cc1 (stereo not given),10
CC1=NN(C(=O)c2csc(C(C)C)c2)C(O)(C(F)(F)F)C1 (stereo not given),18
COc1cc(CNC23CC4CC(CC(C4)C2)C3)ccc1OCc1ccccc1,12
COc1ccc(CNc2ccc(C)c(C)c2)cc1,-2
NC(=O)CC(NC(=O)Cc1ccc(Br)cc1)c1ccc(NCCc2cccc(F)c2)c([N+](=O)[O-])c1 (stereo not given),11
COc1ccc(-c2cc(C(=O)OCC(=O)c3ccc(C)c([N+](=O)[O-])c3)c3ccccc3n2)cc1,2
N#Cc1c(-c2ccccc2)[nH]c(=O)[nH]c1=O,15

# Reformatted: entries from further up
O=S(=O)(Cc1noc(-c2ccccc2Cl)n1)c1ccccn1
  Biofilm kill mix: 19
CCCCC(=O)Nc1cc(OC)c(NC(=S)NC)cc1OC
  Biofilm kill mix: 11
COc1ccc(CNc2ccc(C)c(C)c2)cc1
  Biofilm kill mix: -2

# Further entries
SMILES,Biofilm kill mix
CC(=O)Nc1ccc2nc(NC(=O)C(Cl)(Cl)Cl)sc2c1,5
CCOC(=O)C1(Cc2ccccc2C)CCCN(Cc2cc(OC)c(O)c(OC)c2)C1 (stereo not given),13
CCOC(=O)/C(=N\Nc1cccc(Cl)c1)Sc1nnc(-c2ccc(OC)cc2)n1C,9
CCOC(=O)N=Nc1c2ccccc2c2nc3no[nH]c3nc12,20
Cc1cc(OC(C)C(N)=O)nc(-c2ccccc2)n1 (stereo not given),5
NC1=NC(=O)CC(C(=O)Nc2cccc3ccccc23)S1 (stereo not given),5
CCOC(=O)C1=C(N)OC(C)=C(C#N)C1c1ccco1 (stereo not given),14
COc1nc(NCCO)nc(Nc2ccccc2F)n1,11
CCOc1ccc2c(c1)nc(NCCCO)n2Cc1ccccc1,24
Cc1ccc(S(=O)(=O)N2CCN(c3ccnc4cc(Cl)ccc34)CC2)cc1,21
Nc1ccc(-c2nc3ccc([N+](=O)[O-])cc3[nH]2)cc1,16
Cn1c(=O)cc(N2CCN(C(=O)c3ccco3)CC2)[nH]c1=O,-1
